Screening data from PubChem BioAssay.
Mtb hypoxia inh: Mtb hypoxia fluorescent reporter inhibition; M. tuberculosis hypoxia-regulated fluorescent reporter, fluorescence; 300,000 tested, 0.1% active; AID 1159583; fluorescence inhibition, % (test concentration not listed);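 active = 35 to 45% if threefold the growth effect, above 45% if 1.5-fold the growth effect; inactive = the rest, general growth blockers included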;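 also: wells of about 50 µL received 100 nL stock; 0% = vehicle wells and 100% = reference inhibitor wells; whole bacteria with a GFP reporter of the hypoxia response; strong numbers were not always called active; many hits fall short of the cut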
RN4220 kill: S. aureus RN4220 growth inhibition; OD600, 16 h; inhibition, % (test concentration not listed); 330,000 tested, 0.33% active; AID 1259311;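 active = z-score of -3 or lower and OD600 up to 0.18 on both plates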;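 also: plate controls were untreated cells for no effect and reference antibiotic for full effect; stock transfer was 100 nL into about 80 µL; one replicate is shown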
Bead autofluor: flagged as autofluorescent in microsphere protease counterscreen. compound autofluorescence counterscreen, microsphere flow cytometry; stronger effect = higher value. fluorescence intensity (no concentration beside the values). 360,000 tested, 3.1% active;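 active = at least 3 SD above the mean of all compounds, about 16000 in these data; inconclusive = too few beads counted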;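 also: 100 nL of 1 mM stock went into each well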
BJeLR viability: BJeLR cell viability loss. 300,000 tested, 0.17% active. AID 1554. BJeLR (HRASV12) viability, CellTiter-Glo ATP luminescence, 48 h; reference of the scale not given here. inhibition, % (concentration not given with the values);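 active = replicate mean above 50%; inconclusive = above 50% but judged a plate artefact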;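 also: 50 nL library stock added to about 25 µL; numbers are from one replicate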
Sa ugtP lethal: compounds lethal to S. aureus RN4220 ugtP deletion mutant; OD600 growth, 16 h; some inactives read as strong as hits; growth inhibition, % (test concentration not listed); 330,000 tested, 0.54% active; AID 1259309;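 active = z-score under -3 and OD600 up to 0.15 on both plates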;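 also: plate controls were untreated wells for no effect and antibiotic for full effect; wells of about 80 µL received 100 nL stock; the first replicate is given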
PrP UTR inh: suppresses PrP 5' UTR mRNA reporter expression | AID 488862 | inhibition, % (test concentration not listed) | 340,000 tested, 0.35% active | cell-based PrP 5' UTR mRNA reporter, plate reader;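 active = every replicate at 50% or more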;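 also: 0 = median of the neutral control wells; tested in H4 reporter cells; numbers are from one replicate; inactives centre near -14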
Mtb hypoxia inh growth: second read-out of Mtb hypoxia inh, no call of its own (marks repeat the call); growth inhibition, %; measured here: M. tuberculosis growth (absorbance);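 0% = vehicle and 100% = reference antibiotic; read after six days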
The depositor's hits bear a star; ? = inconclusive; · = not tested or not shown.

The line under a structure holds: Mtb hypoxia inh	Mtb hypoxia inh growth	RN4220 kill	Bead autofluor	BJeLR viability	Sa ugtP lethal	PrP UTR inh
CCCCc1ccc(NC(=O)CSC2=C(C#N)C(c3ccco3)C3=C(CCCC3=O)N2)cc1 (configuration not stated)
 : 0	-7	-2.4	4543	0	-14	-7
C/C(=N\NC(=O)C1CC1)c1ccc(C)cc1C
 : ·	·	·	5328	-5	·	-6
O=C1Nc2ccc(Br)cc2C1=C1CCCCC1
 : -12	4	4.5	3979	-11	-13	-43
O=c1oc2c(CN3CCN(CCO)CC3)c(O)ccc2cc1-c1ccccn1
 : 4	11	1.8	4477	3	7	-16
O=C1CC(=O)N(c2cccc(F)c2)C(=O)N1
 : 6	10	4.6	3666	-16	12	-10
CCCCC(=O)Nc1ccc(C(N)=O)cc1
 : 13	-2	-0.3	3145	11	4	-10
Cc1ccc(C(=O)NCCN2CCOCC2)cc1
 : 6	4	5.4	4969	-18	8	-26
CCOC(=O)C1(C)NC(c2cccc(C)c2)C2C(=O)N(c3ccccc3)C(=O)C21 (configuration not stated)
 : -2	3	2.4	3743	-3	2	7
O=C(Nc1cccc(C(F)(F)F)c1)C1CCCN(S(=O)(=O)c2cnc[nH]2)C1 (configuration not stated)
 : 11	2	5.2	22065*	3	4	-25
Cc1cc(C)n(S(=O)(=O)c2ccc(Cl)c(Cl)c2Cl)n1
 : 2	3	3.5	9558	-8	-31	-5
CC(=O)NS(=O)(=O)c1ccc(NC(=O)c2ccc(Br)o2)cc1
 : 9	10	2.2	3062	-1	0	-9
Cc1cc(-c2n[nH]c(=S)n2/N=C/c2cccc(O)c2)n[nH]1
 : ·	·	·	4611	3	·	2
CN(CC(=O)Nc1cccc(F)c1)C(=O)c1sc2ccccc2c1Cl
 : 1	2	1.4	6339	·	-2	-40
Cc1cc(C)nc(NC2=NCCN2C(=S)Nc2c(C)cccc2C)n1
 : 16	9	-1.7	4094	-4	3	40
C=CCn1c(SCc2c(C(=O)OC)sc(N)c2C(=O)OC)nnc1-c1ccc(Br)cc1
 : ·	·	-1.4	3455	5	11	-5
COc1ccc(Br)cc1CNC(=O)C1CCN(C(=O)N(C)C)CC1
 : 18	5	1.5	3356	-2	3	5
CC1CCCCN1C(=O)Cn1c(=O)oc2ccccc21 (configuration not stated)
 : 2	4	-1.2	3499	-4	1	-5
COc1cc(/C=N/NC(=O)c2ccc3c(c2)OCCO3)cc(Cl)c1O
 : ·	·	·	4049	2	·	2
c1ccc(-c2nnc(SCC3CCCO3)nc2-c2ccccc2)cc1 (configuration not stated)
 : -2	1	0.2	4750	-1	9	-11
O=C(NCC1CC1)c1cc(-c2ccccc2)nn1CC1CC(c2cccnc2)=NO1 (configuration not stated)
 : 10	8	3.1	2892	-4	1	-7
Cc1cc(C(=O)Nc2ccc(S(=O)(=O)N3CCOCC3)cc2)ccc1[N+](=O)[O-]
 : 9	1	4.7	3714	-3	1	-18
O=C(NCCCN1CCOCC1)C1Nc2ccc(OC(F)(F)F)cc2C2C=CCC12 (configuration not stated)
 : 12	13	4.9	3794	-4	-6	-11
C/C(=C\C(=O)c1ccc(Cl)cc1)NCc1ccc2c(c1)OCO2
 : ·	·	·	3694	3	·	-7
Cc1ccc2nc(C)c(C(=O)NN=Cc3cccs3)cc2c1
 : 17	3	3.8	·	·	4	·
COC(=O)c1ccccc1NC(=O)CSc1ncn[nH]1
 : 14	12	4.8	3669	-2	7	-7
COc1ccc(/C=N/NC(=O)c2ccc(=O)[nH]n2)cc1OC
 : ·	·	·	2483	-9	·	-18
COc1ccc(NC(=O)COC(=O)c2ccc([N+](=O)[O-])o2)cc1Cl
 : 10	9	12	4321	·	14	-33
Cc1cccc(C)c1OCC(=O)N(Cc1ccc(Cl)cc1)C1CCS(=O)(=O)C1 (configuration not stated)
 : 1	1	1.9	5390	5	3	-28
CCN(C[C@H]1N[C@@](Cc2ccccc2)(C(=O)OC)[C@H]2C(=O)N(C)C(=O)[C@@H]12)C(=O)c1ccc(F)cc1
 : 4	8	1.7	3440	·	-1	-12
CN(C)/C=C/C(=O)c1ccc(Oc2ccccc2)cc1
 : -6	9	1.9	2081	10	5	-69

Grouped by structure: the compounds so far with a furan ring, fused or not
The line under a structure holds: Mtb hypoxia inh	Mtb hypoxia inh growth	RN4220 kill	Bead autofluor	BJeLR viability	Sa ugtP lethal	PrP UTR inh
CCCCc1ccc(NC(=O)CSC2=C(C#N)C(c3ccco3)C3=C(CCCC3=O)N2)cc1 (configuration not stated)
 : 0	-7	-2.4	4543	0	-14	-7
CC(=O)NS(=O)(=O)c1ccc(NC(=O)c2ccc(Br)o2)cc1
 : 9	10	2.2	3062	-1	0	-9
COc1ccc(NC(=O)COC(=O)c2ccc([N+](=O)[O-])o2)cc1Cl
 : 10	9	12	4321	·	14	-33

(cont.)
The line under a structure holds: Mtb hypoxia inh	Mtb hypoxia inh growth	RN4220 kill	Bead autofluor	BJeLR viability	Sa ugtP lethal	PrP UTR inh
CCOC1OC(C(=O)N2CCN(Cc3ccccc3)CC2)=CC(c2csc3ccccc23)C1CCCO (configuration not stated)
 : 0	3	1.5	·	·	4	·
c1ccc2c(CC3CNCCN3CC3CCCCC3)cccc2c1 (configuration not stated)
 : -1	0	-12	·	·	-36	·
COc1ccc(Cc2nnc(NC(=O)Nc3ccc(C)cc3)s2)cc1OC
 : 0	-8	-0.3	2925	2	-7	-35
COCCCNC(=O)c1ccccc1NS(=O)(=O)c1ccc(C)cc1
 : 5	9	6.0	2845	-1	3	1
COC(=O)Cc1ccc(NC(=S)N2CCN(C)CC2)cc1
 : 8	0	5.2	2087	-5	11	-17
CN(CC(=O)NCc1ccco1)S(=O)(=O)c1ccc2c(c1)n(C)c(=O)c(=O)n2C
 : 6	9	4.5	24204*	3	-1	-22
COc1ccc(Nc2nc(N3CCCC3)c3ccccc3n2)cc1
 : ·	·	-0.8	2604	11	-6	-8
Cc1ccnc(NS(=O)(=O)c2ccc(NC(=O)c3ccc(S(=O)(=O)N(C)C)cc3)cc2)n1
 : 20	16	5.2	2161	-1	7	-7
CC(NCc1ccc(S(N)(=O)=O)cc1)C(=O)N1c2ccccc2CC1C (configuration not stated)
 : 4	-1	2.3	4147	1	-4	-16
COc1cccc(NC(=O)C(=O)NCC(c2ccco2)N2CCc3ccccc3C2)c1 (configuration not stated)
 : -2	-3	-3.4	6574	10	7	-41
CCN1CCC(N2CCN(c3ccc(Cl)cc3)CC2)CC1
 : 2	-6	1.3	·	6	3	·
CC[C@@H](C)[C@H](NS(=O)(=O)c1ccc(C)cc1)C(=O)N1CCC(C(=O)NCC(=O)O)CC1
 : 8	2	-17	2780	1	-8	-14
CCC(CC)CN1CCN=C1N(C)C
 : 7	2	3.4	3662	2	-3	-6
O=C(CSc1ccc(Cl)cc1)NN=C1CCCCCC1
 : -9	-7	5.2	3979	-4	4	-8
CC(=O)c1cccc(NC(=O)CCC(=O)Oc2ccc(C)cc2)c1
 : 1	-3	2.7	3821	9	-1	-20
CCC(NC(=O)N(Cc1ccccc1)Cc1ccc2c(c1)OCO2)(C(F)(F)F)C(F)(F)F
 : 21	8	-1.2	8679	-3	41	-15
CCOC(=O)c1ccc(-c2ccc(C=NNC(=O)Cc3nnc(N)s3)o2)cc1
 : 3	0	1.5	·	·	4	·
COc1ccccc1NC(=O)CSCc1nc2ccccc2[nH]1
 : -3	5	8.0	2577	-10	9	6
COCCn1c(C)cc(C(=O)COC(=O)c2cc3c(s2)CCC3)c1C
 : 3	9	1.1	3160	-5	0	-41
Cc1ccc(C(=O)Nc2cccc(-c3ccc(N4CCOCC4)nn3)c2)cc1[N+](=O)[O-]
 : 2	2	-2.4	?	4	-6	-75
O=C(/C=C/c1ccco1)NC(=S)Nc1cc(-c2nc3ccccc3s2)ccc1Cl
 : -3	-4	8.1	2510	·	5	-37
COc1ccccc1CNc1nc2nc3c(c(=O)n2[nH]1)CCC3
 : -3	5	1.9	10160	1	1	-2
CCC(=O)NC(c1ccc(OC)cc1)c1c(O)ccc2ccccc12 (configuration not stated)
 : -1	8	-7.7	2745	-9	-5	-23
CCOc1ccc(NC(=O)[C@@H]2CCC(=O)N2C2OC(=O)c3ccccc32)cc1 (some centres not stated)
 : ·	·	0.3	3969	-3	-4	-22
O=C(CN(CC1CCCO1)C(=O)CCC(=O)Nc1nccs1)NCc1ccccc1 (configuration not stated)
 : 8	5	3.4	2265	-3	7	-17
CCOc1cc(/C=N/NC(=O)c2ccc(O)cc2)ccc1Oc1nc(Cl)ncc1F
 : ·	·	·	2237	-4	·	-21
CC1Cc2ccccc2N1C(=O)c1cnc2ccccn2c1=O (configuration not stated)
 : 5	12	1.9	23725*	7	-1	-8
O=C(CCc1ccccc1)NC(=S)Nc1ccccc1Br
 : 5	10	2.3	4332	-6	68	-25
O=C(NNc1ncnc2c1cnn2-c1cccc(Cl)c1)c1ccco1
 : 2	1	3.6	5971	-8	-6	-23
CNC(=S)N/N=C(\C)c1ccc(C(C)(C)C)cc1
 : ·	·	·	7473	3	·	-6
CN(c1ccc(C(=O)COC(=O)C2CC2)cc1)S(C)(=O)=O
 : 7	16	1.5	3833	·	2	-82
CC(C)[C@H](N)c1nnc2n1N=C(c1ccc(Cl)cc1)CS2
 : 3	-3	2.4	4152	-5	0	-11
CCSc1cc(C)nc2ncnn12
 : -5	14	9.5	3075	-4	3	-10
Cc1cc2cc(CN(Cc3cccs3)Cc3nnnn3CC3CCCO3)c(=O)[nH]c2cc1C (configuration not stated)
 : -10	7	6.4	9005	-2	-7	-18
CCOC(=O)N1CCC(NS(=O)(=O)c2ccc3c(c2)C(C)(C)C(=O)N3C)CC1
 : -2	0	-1.4	4459	-12	-2	-9
CCC(CC)C(=O)Nc1c2cnn(-c3ccccc3)c2nc(=O)n1-c1ccccc1
 : 7	2	3.3	5925	-11	13	-19
O=S(=O)(c1ccccc1)N1CCN(CCO)CC1
 : -10	-2	4.7	4343	-6	3	-14
CN1CCN(S(=O)(=O)c2ccc(N(C)Cc3ccc(C(F)(F)F)cc3)c([N+](=O)[O-])c2)CC1
 : 4	7	-3.0	?	·	-10	-30
Cc1nc(NCc2ccco2)c(C#N)c2c1COC(C)(C)C2
 : ·	·	·	2440	0	·	-7
CCN1CCc2nc3sc(C(=O)Nc4cccnc4Cl)c(N)c3cc2C1
 : -2	6	7.9	4525	-1	4	-28
Cc1c(NC(=O)C(=O)/C=C(/O)c2ccccc2)c(=O)n(-c2ccccc2)n1C
 : ·	·	·	8686	3	·	-12
Cc1ccc(C(=O)NNC(=O)CSc2nnc(CNc3ccc(F)cc3)n2C)cc1
 : 5	-7	3.6	·	5	7	·
OCCN(CC#CC(O)(c1ccccc1)c1ccccc1)CCO
 : -3	-4	2.1	3649	-3	3	-10
CON=Cc1cccn1-c1nccc(OC)c1C#N
 : 11	9	9.8	·	·	-2	·
CC(C)CCOc1ccc(C=NN2C(=O)CSC2=S)cc1
 : 15	25	4.8	·	·	10	·
CCCn1c2ccccc2c2cnn(CC(=O)NCCOC)c(=O)c21
 : 5	-3	2.1	3466	-1	5	-16
CC1CCCCN1S(=O)(=O)c1ccc(C(=O)N(CCCN(C)C)c2nc3ccc(Br)cc3s2)cc1 (configuration not stated)
 : 5	5	-2.8	7915	-7	-22	-15
C[C@@]12CCC=C[C@H]1[C@H](c1ccc(C(F)(F)F)cc1)N(Cc1ccccc1)C2=O
 : ·	·	·	2978	2	·	3
O=C(Nc1ccccn1)c1onc2c1CCCC2
 : 16	1	3.7	1988	25	-3	-22
COC(=O)c1cc2ccccc2oc1=O
 : 18	14	2.6	4294	3	0	-19
CCn1c2ccccc2c2cc(CN3CCN(Cc4cc(OC)ccc4O)CC3)ccc21
 : -10	3	-3.9	2143	-2	-15	-18
Cc1ccc(N(CC(=O)NC2CCCC2)C(=O)c2ccc(C)s2)cc1
 : -4	0	-1.3	4166	3	-9	0
CC(=O)c1cccc(NC(=O)C2(c3ccccc3)CC2(Cl)Cl)c1 (configuration not stated)
 : 13	8	4.9	2677	4	-1	-14
CC(=O)c1cccc(NC(=O)Nc2csc3c2CCCC3)c1
 : 6	6	2.0	4153	0	11	-28
Cc1cc2c(SCC(=O)NC3CCCC3)ncnc2s1
 : 7	3	-0.5	3409	-8	5	-20
O=C(CS(=O)(=O)Cc1ccccc1)Nc1ccc2c(c1)OCO2
 : 15	2	5.0	3136	2	3	-13
O=C(CC(Nc1cccc(Cl)c1Cl)C(=O)OCC(=O)c1cccs1)c1ccccc1 (configuration not stated)
 : 4	12	6.8	2390	-12	-5	-13
